Screening data: PubChem BioAssay, Johns Hopkins Ion Channel Center
KCNQ2 pot = KCNQ2 (rat) channel potentiation; CHO-K1 KCNQ2, FluxOR thallium flux fluorescence; hits give high values; B-score at 10 µM; 310,000 tested, 0.54% active;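 active means fluorescence ratio B-score at least 3 SD of library B-scores, with initial fluorescence B-score within 3 SD, cut at about 5.3 in these data; same plate scores as AID 2156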;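 further: B-score of peak minus minimum over baseline fluorescence ratio after K+ and Tl+ stimulus; positive B-score means potentiation of KCNQ2 with more thallium influx and brighter signal; only the inactives scoring about 0 or higher are listed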
Target sequence (O88943 whole entry, looked up): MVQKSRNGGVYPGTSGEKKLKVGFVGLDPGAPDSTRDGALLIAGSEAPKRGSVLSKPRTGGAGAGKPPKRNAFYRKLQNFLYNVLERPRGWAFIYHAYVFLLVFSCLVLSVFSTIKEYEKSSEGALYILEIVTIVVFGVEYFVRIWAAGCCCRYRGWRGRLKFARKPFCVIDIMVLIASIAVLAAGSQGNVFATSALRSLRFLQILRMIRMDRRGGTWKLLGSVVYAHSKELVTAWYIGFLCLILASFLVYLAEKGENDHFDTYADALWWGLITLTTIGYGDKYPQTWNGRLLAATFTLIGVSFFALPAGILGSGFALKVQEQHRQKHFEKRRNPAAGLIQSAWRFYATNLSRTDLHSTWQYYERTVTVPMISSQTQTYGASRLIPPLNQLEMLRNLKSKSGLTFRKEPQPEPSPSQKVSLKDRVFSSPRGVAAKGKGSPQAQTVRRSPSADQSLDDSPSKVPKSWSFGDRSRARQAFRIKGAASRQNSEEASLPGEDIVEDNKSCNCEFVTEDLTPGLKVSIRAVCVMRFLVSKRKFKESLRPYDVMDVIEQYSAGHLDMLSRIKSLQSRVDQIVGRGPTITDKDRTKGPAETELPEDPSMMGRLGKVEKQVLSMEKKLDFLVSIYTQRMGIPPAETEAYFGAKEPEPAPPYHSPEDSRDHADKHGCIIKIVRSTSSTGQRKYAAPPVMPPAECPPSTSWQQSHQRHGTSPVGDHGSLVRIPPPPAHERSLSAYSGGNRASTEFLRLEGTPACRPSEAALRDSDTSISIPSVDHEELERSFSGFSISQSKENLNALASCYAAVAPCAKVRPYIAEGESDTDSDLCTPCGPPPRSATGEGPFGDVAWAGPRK
KCNQ2 pot baseline = further read-out of KCNQ2 pot, marked with its call; B-score; compound at 10 µM; measured here: initial fluorescence intensity artifact check;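 brightness before thallium and not channel activity; 0 = typical well and far values either way flag optical interference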
The depositor's hits bear a star; & = joins results of further samples. Some of the compounds tested, so the mix of outcomes need not match the whole.

SMILES	KCNQ2 pot	KCNQ2 pot baseline
O=C(C1CCC(Cn2c(=S)[nH]c3ccccc3c2=O)CC1)N1CCN(c2ccccc2)CC1 (stereo not given)	0.88	0.95
CCC(C)(C)n1nnnc1C(c1cccnc1)N1CCCC(C)C1 (stereo not given)	0.7	-1.78
Cn1c(=O)c(C=Nc2ccccc2)c(O)c2ccccc21	0.43	0.34
CN(C)c1ccc(/C=C/C#N)cc1	0.63	-0.89
CCCN(CC(=O)Nc1ccc(F)c(F)c1F)C(=O)CCc1nc2ccccc2c(=O)[nH]1	0.54	0.48
CCn1cc(CN2CCN(Cc3ccc(OC)c(C)c3C)C(CCO)C2)c(C)n1 (stereo not given)	0.78	0.61
COc1ccc(NC(=O)CN(C)C(=O)c2ccc(=O)[nH]c2)cc1	0.06	0.14
CCn1ncc([N+](=O)[O-])c1C(=O)Nc1ccc(C)c(C)c1	0.61	-0.83
COC(=O)c1ccc(-n2nnnc2SCC(=O)Nc2ccccc2F)cc1	1.12	-0.52
CCN(CC)CCNC(=O)c1cc2c(=O)n(C)c3ccccc3c2n1C	0.67	-2.24
CCn1nnc(NC(=O)c2sc3ccccc3c2Cl)n1	1.42	-0.48
CC(=O)N1CCC2(CC1)CC(=O)c1cc(OCC(=O)N3CCOCC3)ccc1O2	0.78	-0.06
CCN(CC)C(=O)c1[nH]cnc1C(=O)N[C@@H](CCCCNC(=O)OC(C)(C)C)C(=O)OC(C)(C)C	1.73	-0.01
O=[N+]([O-])c1ccc(OC(F)F)c(/C=N/n2cnnc2)c1	0.27	-0.89
N#Cc1cccnc1N1CCN(C(=O)c2ccccc2)CC1	0.77	-0.99
Cc1[nH][nH]c(=O)c1C=Nc1ccc(C(F)(F)F)cc1	0.59	-0.1
Cc1cc(=O)oc2cc(OCC(=O)OCC(=O)Nc3ccc4ccccc4c3)ccc12	0.27	-0.66
O=C1CC2(CCN(C(=O)COc3ccc(F)cc3)CC2)Oc2ccccc21	0.14	1.79
Cc1ccc(C(=O)Cn2nnc(-c3ccccc3)n2)cc1	0.07	-1.92
O=C(CC(c1ccccc1)c1ccccc1O)N1CCCCC1 (stereo not given)	0.02	-0.99
COc1ccc(CNC(=O)c2ccc(CNc3c(NC4CCCCC4)c(=O)c3=O)cc2)cc1	0.94	-1.01
OCc1ccccc1O[C@@H]1O[C@H](CO)[C@@H](O)[C@H](O)[C@H]1O	0.52	1.22
Fc1ccccc1C1c2cccn2CCN1C(=S)Nc1cccc(Br)c1 (stereo not given)	0.31	0.15
COc1ccc2nc(SCC(=O)N3CCCCC3)c(C#N)cc2c1	0.06	1.21
CCNc1nc(NC(C)C)nc(N(C#N)CC(=O)OC)n1	0.38	-0.48
CCn1nc(C)c([N+](=O)[O-])c1C(=O)NNC(=O)c1ccccc1Cl	1.08	0.34
COc1ccc(CCNC(=O)c2cnc3ccccc3n2)cc1	0.42	-1.22
O=C(Cn1ncc2c([nH]c3ccccc32)c1=O)N1CCN(c2ccc(F)cc2)CC1	0.2	-0.43
CCN(c1ccc(OC)cc1)S(=O)(=O)c1nnc(NC(=O)COc2ccccc2)s1	0.3	0.19
Cc1nc2ccc([N+](=O)[O-])cc2[nH]1	0.64	0.87
COc1ccc(CN2C(=O)CCC(C(=O)O)C2c2ccccc2)cc1 (stereo not given)	0.74	0
CCOCCc1nn2c(=O)cc(CSCC(=O)Nc3cc(C)cc(C)c3)nc2s1	0.82	0.1
COc1cccc(Cn2c(NCc3cccnc3)nc3c2c(=O)n(C)c(=O)n3C)c1	1.9	-0.53
O=C(NCc1ccccc1Cl)NC(=O)c1csc([N+](=O)[O-])c1	0.02	-1.7
Cc1noc(C)c1S(=O)(=O)N1CCC(Cc2ccccc2)CC1	0.46	-0.07
O=C(CC(NCCc1ccccc1)C(=O)O)Nc1ccc(O)cc1 (stereo not given)	0.81	-1.98
Cc1cc(OCC(=O)Nc2sc3c(c2C#N)CC(C)(C)NC3(C)C)c(C(C)C)cc1Cl	0.68	-1.29
Cc1cc(C)c(NC(=O)c2cc(C(=O)O)ccc2C(=O)O)c([N+](=O)[O-])c1	0.63	1.6
O=C(CCCN1C(=O)C(c2ccccc2)Oc2cccnc21)NCc1ccc(F)cc1 (stereo not given)	0.52	1.68
O=C1C2Sc3[nH]c(=O)sc3C(c3cc([N+](=O)[O-])ccc3O)C2C(=O)N1c1ccccc1 (stereo not given)	0.33	-1.07
CCOC(=O)c1c(CN2CCOCC2)n(C)c2cc(Br)c(O)c(CN(C)C)c12	0.1&1.26	1.44&0.2
O=C(CCc1ccccc1)NNC(=O)c1ccc(F)cc1	2.64	-2.35
COc1cccc(N(CC(=O)NCCSc2ccccc2)S(C)(=O)=O)c1	1.51	-1.34
CCOC(=O)c1ccc(NC(=O)COc2ccc(CNCCO)cc2OCC)cc1	0.04	1.67
COc1ccccc1CCC(=O)NNC(=O)c1ccc(Br)cc1	0.1	-1.66
O=C(Nc1ccnn1C1CCN(C(=O)c2cnsn2)CC1)c1cccc(F)c1	1.03	-0.07
CCN(CC)S(=O)(=O)c1ccc(C(=O)NCCN(C)C)cc1	0.32	0.67
Cc1noc(C)c1C(=O)Nc1nnc(-c2ccccc2)s1	1.57	0.8
CCCONC(=O)Nc1ccccc1[N+](=O)[O-]	1.66	0.38
O=C(N/N=C1\CCCc2ccccc21)c1cccc([N+](=O)[O-])c1	1.39	0

(list continues)
SMILES	KCNQ2 pot	KCNQ2 pot baseline
CC(C)Oc1ccc(C(=O)Nc2ccc([N+](=O)[O-])cc2)cc1	0.13	2.45
CC(=O)Nc1ccccc1OCC(=O)NCCC1=CCCCC1	1.32	-0.26
CC[C@H](C)[C@H](NC(N)=O)C(=O)Nc1ccc(C)cc1	0.07	-0.21
Cc1nn(C)c2ncc(C(N)=O)c(Oc3ccc(Cl)cc3)c12	0.43	1.35
Cc1ccnc(SCC(=O)N2CCN(c3ccccc3)CC2)n1	0.44	-0.55
S=C(Nc1ccccn1)Nc1ccccc1Cl	0.38	-1.52
NC(=O)c1nn(-c2ccc(Cl)cc2Cl)c(=O)cc1O	1.33	0.28
CN(CC(=O)Nc1ccc(N2CCOCC2)cc1)C(=O)CCNC(=O)c1ccc(Br)cc1	0.26	-1.02
COCCCNC(=S)N1CCC(C(=O)c2ccc3c(c2)OCCO3)CC1	0.36	-1.01
O=C(COC(=O)C1CCN(S(=O)(=O)c2cccs2)CC1)Nc1ccc(F)cc1F	0.97	0.28
O=C(NCc1cccnc1)C1CCCN(S(=O)(=O)c2cccc3nsnc23)C1 (stereo not given)	0.56	0.01
O=C(OCc1ccccc1)C1CCCN1C(=O)c1ccccc1[N+](=O)[O-] (stereo not given)	2.59	-1.29
CCc1c(C)nc2ncnn2c1Nc1ccc(C#N)c(Cl)c1	0.03	-0.19
O=C(Cn1ccc(=O)[nH]c1=O)NCCO	0.22	0.07
COc1cc(C2=NOC(C(=O)Nc3cccnc3)C2)cc(OC)c1OC (stereo not given)	0.51	-0.89
O=C(Nc1ccc(Cl)cc1C(=O)N1CCOCC1)c1cccc([N+](=O)[O-])c1	0.86	0.02
O=C(O)c1ccc(Nc2nc3ccccc3nc2NS(=O)(=O)c2cccs2)cc1	0.66	1.35
COc1cc(C(O)P(=O)(OCC(C)C)OCC(C)C)cc(OC)c1OC (stereo not given)	0.01	0.27
COC(=O)c1ccccc1NC(=O)C/C(C)=N/NC(=O)CC#N	1.08	-0.14
Cc1ccc(-c2nnc(COc3cccc(-n4cnnn4)c3)o2)cc1	0.28	-0.94
COc1cc(CO)ccc1Oc1nc2ccccc2n2cnnc12	1.63	-0.24
COC(=O)c1cccc(NC(=O)CN2CCOCC2)c1	1.13	-1.14
COc1ccc(C2=NOC(C)(c3nnc(Cc4ccccc4)o3)C2)cc1 (stereo not given)	0.05	-0.55
OC(COCC1COc2ccccc2O1)CN1CCc2ccccc2C1 (stereo not given)	0.12	-1.98
Cc1ccc(-c2nn[nH]n2)cc1Cl	0.08	-0.19
O=C(NC(=O)c1ccc(Cl)c(Cl)c1)OC1CCS(=O)(=O)C1 (stereo not given)	0.6	-0.73
CCCc1nc(SCC(=O)N2CCOCC2)c2c(C)c(C)sc2n1	4.84	-2.03
CC1CCc2c(sc3ncnc(NS(=O)(=O)c4cccs4)c23)C1 (stereo not given)	1.02	-0.7
Cc1ccc(S(=O)(=O)NCc2nnc(SCC(=O)Nc3cccc(C)c3C)n2C)cc1	0.07	0.44
COc1ccccc1C1CC(c2ccc(C)cc2)Nc2ncnn21 (stereo not given)	0.18	-0.13
COC(=O)/C(C#N)=C1/C=Cc2ccccc2N1	0.58	-2.66
CN(C)C(=O)CN1C(=O)C2CCCCN2C(=O)c2ccccc21 (stereo not given)	1.31	3.13
CC1C(C#N)=C(N)OC2=C1C(=O)CC(C)(C)C2 (stereo not given)	0.23	0.97
CCOC(=O)c1ccc(N2C(=O)c3n[nH]c(C)c3C2c2ccccc2)cc1 (stereo not given)	0.67	-0.35
CCCCn1c(N)c(N(CCOC)C(=O)c2ccc(N3C(=O)CCC3=O)cc2)c(=O)[nH]c1=O	0.22	0.4
COc1ccccc1N1C(=NC(=O)CCC2CCCC2)SC2CS(=O)(=O)CC21 (stereo not given)	1.22	-0.43
Cc1c(C)c2ccc(OCC(=O)c3ccccc3)cc2oc1=O	1.57	0.7
Cc1ccc2c(c1)N(C(=O)CCC(=O)NCCCN1CCN(C)CC1)CC(C)O2 (stereo not given)	0.01	-1.5
COc1ccc(C2(C(=O)Nc3ccc(S(N)(=O)=O)cc3)CCCC2)cc1	0.03	0.11
Cn1nc(-c2ccc(Cl)cc2)nc2c(=O)n(C)c(=O)nc1-2	3.72	2.31

Ordered by molar mass (high to low): some entries from above.
SMILES	KCNQ2 pot	KCNQ2 pot baseline
CCCCn1c(N)c(N(CCOC)C(=O)c2ccc(N3C(=O)CCC3=O)cc2)c(=O)[nH]c1=O	0.22	0.4
CCOC(=O)c1ccc(N2C(=O)c3n[nH]c(C)c3C2c2ccccc2)cc1 (stereo not given)	0.67	-0.35
CC1C(C#N)=C(N)OC2=C1C(=O)CC(C)(C)C2 (stereo not given)	0.23	0.97

(list continues)
SMILES	KCNQ2 pot	KCNQ2 pot baseline
COc1ccc(-n2nc(C(=O)NCC(=O)NC3CCCCCC3)c3ccccc3c2=O)cc1OC	1.49	0.02
C/C(=N/NC(=O)CNC(=O)c1ccccn1)c1ccc([N+](=O)[O-])cc1	0.47	0.31
COC(=O)c1sccc1NC(=O)CC1C(=O)NCCN1C(=O)c1ccc(C)c(C)c1 (stereo not given)	0.43	0.1
CCc1ccc(Oc2cc(Cl)nc(N)n2)cc1	0.01	2.03
CCOC(=O)N1CCN(C(=O)c2oc3ccc(S(=O)(=O)N4CCCCCC4)cc3c2C)CC1	1.69	-1.12
Cc1c(NC(=S)NC(=O)CC(C)C)c(=O)n(-c2ccccc2)n1C	0.44	0.43
COc1ccc(/C=C/C2=CC(C)(C)NC(=S)N2)c(OC)c1	0.18	-2.95
CC(=C/c1ccc(C(C)C)cc1)/C=N/NC(=O)Cn1nnnc1N	1.35	-1.21
Cc1cc(C)n2ncc(/C(N)=N/OC(=O)Nc3ccccc3)c2n1	1.64	-0.96
CC(=O)C1=C(O)C(=O)N(c2ccc(S(=O)(=O)Nc3nccs3)cc2)C1c1ccc(F)cc1 (stereo not given)	0.09	-0.78
COC(=O)/C=C1\N/C(=N\c2nc(C)cc(C)n2)N(c2ccc(C)c(C)c2)C1=O	0.66	-0.23
COc1ccc(C(=O)Nc2ccccc2-c2nnn(CC(=O)Nc3ccc4c(c3)OCCO4)n2)cc1	1.14	-0.87
O=C(COC(=O)c1ccc(CO)cc1)NCc1cccs1	1.09	0.69
O=S(=O)(NC1=NCCCCC1)c1cccs1	0.33	-0.04
O=C(N=Nc1c(O)[nH]c2ccc(Br)cc12)c1cc(-c2cccc3ccccc23)n[nH]1	0.02	0.13
CC(C)=CC(=O)O[C@H]1[C@@H]2[C@H](C)C(=O)O[C@@H]2C[C@@H](C)[C@@H]2[C@@H](O)CC(=O)[C@]21C	1.33	-1.77
CCOCC(=O)Nc1nc2ccccc2s1	0.2	-1.26
CCOC(=O)N1CCN(C(=O)CN(C)S(=O)(=O)c2ccc(OCC)cc2)CC1	0.65	3.5
Cc1c(CC(=O)N2CCC(C(N)=O)CC2)c(=O)oc2cc3c(cc12)CCC1(CCCCC1)O3	1.43	-0.03
C=C1C(C(=O)N2CCOCC2)C1C(=O)N1CCOCC1 (stereo not given)	1.3	1.16

The last six compounds of the section above lead into the next.
SMILES	KCNQ2 pot	KCNQ2 pot baseline
O=C(N=Nc1c(O)[nH]c2ccc(Br)cc12)c1cc(-c2cccc3ccccc23)n[nH]1	0.02	0.13
CC(C)=CC(=O)O[C@H]1[C@@H]2[C@H](C)C(=O)O[C@@H]2C[C@@H](C)[C@@H]2[C@@H](O)CC(=O)[C@]21C	1.33	-1.77
CCOCC(=O)Nc1nc2ccccc2s1	0.2	-1.26
CCOC(=O)N1CCN(C(=O)CN(C)S(=O)(=O)c2ccc(OCC)cc2)CC1	0.65	3.5
Cc1c(CC(=O)N2CCC(C(N)=O)CC2)c(=O)oc2cc3c(cc12)CCC1(CCCCC1)O3	1.43	-0.03
C=C1C(C(=O)N2CCOCC2)C1C(=O)N1CCOCC1 (stereo not given)	1.3	1.16
CC/C(=N\NC(=O)c1nnn(-c2nonc2N)c1-c1ccc2c(c1)OCO2)c1ccccc1	0.79	0.47
CCOC(=O)c1cc(-c2ccc(OC(F)F)cc2)nc2nc(SC)[nH]c(=O)c12	0.91	-0.66
CCOC(=O)c1c(C)[nH]c(C)c1C(=O)CN1C(=O)NC2(CCC(C)CC2)C1=O (stereo not given)	0.48	1.12
CC(C)C(c1nnnn1C1CCCCC1)N1CCOCC1 (stereo not given)	0.34	-2.01
CC1(c2ccc3c(c2)OCO3)NC(=O)N(CC(=O)c2ccc[nH]2)C1=O (stereo not given)	1.07	0.28
CCOC(=O)c1cnc(-n2nc(C)cc2C)nc1NC1CCCC1	0.8	-1.2
